TRPV1 potentiator – potentiators of human vanilloid receptor 1 (TRPV1); AID 540277; potentiation, % at 8.33 µM; TRPV1-expressing cells, Fluo-8 calcium influx, capsaicin EC20 potentiation; host cell line not named in the record; control for the full effect not named in the record; 0.02% of 320,000 active; Q8NER1; active means potentiation above 80%; inconclusive means 30% to 80%; inactive means below 30%; further: 0% is about no effect
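TRPV1-expressing cells were cultured overnight at 35.5C and loaded with Fluo-8 calcium dye for 40 to 90 min at room temperature. After a 10 s baseline, compound was added and calcium influx was read kinetically for 3 min (ex 480/em 520 nm).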
D2 potentiator – positive allosteric modulators of human D2 dopamine receptor. P14416. DiscoveRx D2 beta-arrestin cells, luminescence, 90 min; 100% = 57 uM dopamine signal. AID 624464. potentiation, % (concentration not given with the values). 0.23% of 360,000 active; active = potentiation of 50% or more; inconclusive = 30% to 50%; inactive = 30% or less;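 further: compound concentration not given in the record; tested on top of an EC20 dose of dopamine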
Target sequence (P14416 whole entry, looked up): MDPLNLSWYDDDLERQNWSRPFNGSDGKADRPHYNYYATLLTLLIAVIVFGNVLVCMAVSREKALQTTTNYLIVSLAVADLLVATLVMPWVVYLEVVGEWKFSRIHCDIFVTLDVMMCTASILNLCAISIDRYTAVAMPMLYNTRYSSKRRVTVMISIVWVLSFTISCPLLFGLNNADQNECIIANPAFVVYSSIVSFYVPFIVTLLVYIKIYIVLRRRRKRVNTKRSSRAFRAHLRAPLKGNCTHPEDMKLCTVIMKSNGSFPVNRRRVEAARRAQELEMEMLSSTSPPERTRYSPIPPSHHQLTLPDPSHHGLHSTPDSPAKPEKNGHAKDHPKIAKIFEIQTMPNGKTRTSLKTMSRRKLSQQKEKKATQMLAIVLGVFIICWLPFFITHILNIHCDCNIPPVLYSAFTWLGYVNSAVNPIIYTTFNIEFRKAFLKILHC
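PathHunter D2 cells, attached overnight at 37 deg C, received compound in DMSO plus dopamine at EC20 (50 nM final) for 90 min at 37 deg C. Beta-arrestin recruitment was read as luminescence after 1 h with detection reagent at ambient temperature.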
PINK1 expr mod – changes PINK1 expression | PINK1 immunofluorescence, high-content cytometry, 24 h | Potency, µM (series often up to 76.6 µM), inactives show top-dose activation (PINK1 increase), actives largely listed as activators | 0.2% of 410,000 active | AID 624263; active = well fitted activation curve with a large enough effect; inconclusive = small, poorly fitted or top-dose-only effect; inactive = flat fitted curve, though single readings scatter; cell line not stated here;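 further: potency means the concentration at half of the fitted maximal effect; % of control where 0% means no effect; nearly all actives have a fitted effect of over 65% in size; a mitochondrial uncoupler was the plate control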
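Fluorescence from anti-PINK1 antibody, together with nuclear and cell stains, was scanned on a laser-scanning cytometer. Before staining, stable-line cells were incubated 24 hours with compounds at 5 concentrations; primary antibody 12 h at 10 degrees C.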
CtBP-E1A blk – blocks the CtBP interaction with E1A; AlphaScreen GST-E1A/His-CtBP binding, 1536-well; active compounds read low; control for the full effect not named in the record; activity change, % (concentration not given with the values); 0.49% of 340,000 active; AID 651724; in the data active means activity change below about -65%; inconclusive means about -30% to -65%; inactive means above about -30%; further: on the % scale 0 is the no-effect control and ±100 the full control effect
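AlphaScreen with 125 nM GST-E1A and 125 nM His-CtBP (5X stocks) in Tris pH 8.0, 300 mM NaCl, BSA, Tween 20, TCEP. Compounds preincubated 2 h at 37 deg C, then glutathione donor/nickel acceptor beads added for 1 h at 37 deg C in dark.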
Six1-Eya2 inh – Six1/Eya2 interaction inhibition. Q15475+O00167. AlphaScreen GST-Six1/His-Eya2 binding, biochemical; active compounds read low; control for the full effect not named in the record. activity change, % (test concentration not listed). 0.56% of 360,000 active. AID 651725; in the data active = activity change below about -65%; inconclusive = about -30% to -65%; inactive = above about -30%; further: on the % scale 0 is the no-effect control and ±100 the full control effect
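AlphaScreen with GST-Six1 and His-Eya2 (5X mix: 250 nM and 500 nM), glutathione donor and nickel acceptor beads; buffer 50 mM Tris pH 8.0, 300 mM NaCl, 1 mM TCEP; 1 h at 37 C in the dark.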
Sfp PPTase inh – blocks B. subtilis Sfp PPTase activity | 3.5% of 310,000 active | AID 1490 | Biochemical Sfp PPTase activity, qHTS | Q9F4F7 | Potency, µM, for inactives: max response, negative = inhibition, actives largely listed as inhibitors; active means well fitted inhibition curve with a large enough effect; inconclusive means small, poorly fitted or top-dose-only effect, or another doubt; inactive means no such curve, though single readings can be large or run the other way;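 further: the enzyme is Sfp with the accession as filed and its product quenches rhodamine fluorescence; potency means the concentration at half of the fitted maximal effect; 0% = enzyme reaction without inhibitor and -100% = no enzyme wells; top concentration of the series not given in the record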
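Compounds were incubated with enzyme (final 15 nM) for 15 min at room temperature before substrate addition started the reaction. Fluorescence at 525 nm excitation, 598 nm emission was recorded immediately and after 30 minutes.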
D2 agonist – human D2 receptor agonism in beta-arrestin assay; P14416; DiscoveRx PathHunter D2 beta-arrestin, luminescence, 90 min; 100% = 57 uM dopamine signal; activation, % (concentration not given with the values); 0.084% of 360,000 active; in the data active = activation above about 40%; inconclusive = about 15% to 40%; inactive = below about 15%; further: compound concentration not given in the record; the text of the record calls up to 30% inactive
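DiscoveRx PathHunter D2 beta-arrestin cells (2,100/well) attached overnight, then compound-stimulated 90 min at 37 C in HBSS/10 mM HEPES/0.1% Tween-20 buffer; beta-galactosidase complementation read by luminescence after 1 h at ambient temperature. Dopamine 57 uM final (EC100) as control.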
* = called active by the depositor; ? = inconclusive; · = no result given; & = joins results of further samples; [ ] = remark or other dose.

mol | Six1-Eya2 inh | D2 agonist | PINK1 expr mod | CtBP-E1A blk | TRPV1 potentiator | Sfp PPTase inh | D2 potentiator
CN1c2ccc([N+](=O)[O-])cc2C(C)(C)C12C=Cc1cc(C(=O)O)ccc1O2 (stereo unspecified) | -12.1 | -1.2 | -2.5% | -17.8 | 9.8 | -4.8% | -4.8
COC(=O)C1=C(Nc2ccc(C)cc2)C=C(C)C(C(=O)OC)C1c1cccc(OC)c1 (stereo unspecified) | 13.3 | -4.2 | 20.1%[38.3 µM] | 21.8 | 21.9 | 0.5% | -13.5
Cc1c(C(=O)OCC(=O)N(C)c2ccccc2)cccc1[N+](=O)[O-] | -1.3 | -1.0 | 0.0% | 0.0 | -7.4 | 12.5% | -16.8
COc1ccccc1CNC(=O)COC(=O)c1ccc2c(=O)n3c(nc2c1)CCCCC3 | 3.2 | -0.2 | 0.5% | -4.6 | 5.8 | · | -3.9
O=C(CN1CCCCC1)Nc1ccc(S(=O)(=O)N2CCOCC2)cc1 | 2.7 | -4.2 | 2.0%[38.3 µM] | 3.6 | 16.7 | 22.6% | -4.5
COc1cccc2c(=O)c(C/C=C(/C)Cl)c(C)[nH]c12 | -5.7 | -0.1 | -1.2% | -1.1 | -11.0 | -11.3% | 6.8
Cc1ccc(C(=O)Nc2nccs2)cc1 | -3.3 | 0.3 | -1.2% | -1.2 | -19.2 | 7.0% | -0.7
c1coc(CN2CN=C(Nc3nc4ccccc4s3)NC2)c1 | -3.9 | -2.0 | -3.4% | -3.9 | 12.7 | 17.0% | -1.2
COC(=O)c1ccc(NC(=O)CCOc2ccccc2)cc1 | 4.9 | 0.5 | -0.9%&0.3% | 5.4 | 3.7 | 9.5% | 0.8
CC(C)c1ccc(NC2CCCN(C(=O)CN3CCCC3=O)C2)cc1 (stereo unspecified) | 2.9 | 5.7 | -0.5% | 1.6 | -15.6 | 10.1% | -5.5
CC(C)CCOP(=O)(c1ccc(N(C)C)cc1)C(Nc1ccccc1)c1ccc(N(C)C)cc1 (stereo unspecified) | -22.9 | 2.2 | 6.6% | · | 4.1 | 13.9% | -13.9
CCOC(=O)N1CCC(=NNC(=O)Cn2ccc(C(F)(F)F)n2)CC1 | 9.1 | -0.4 | 1.4% | 2.6 | 8.0 | -3.9% | -1.9
OCC1(Cc2ccccc2)CCCN(Cc2cn[nH]c2-c2ccccc2)C1 (stereo unspecified) | 2.8 | -4.3 | -1.7% | -2.7 | 5.0 | -3.2% | 1.0
CCN(CC)CCNCC(=O)Nc1ccc(Oc2ccccc2)cc1 | -5.7 | -5.8 | -1.6% | · | -8.8 | ? | -12.2
CN(C)CCCNC(=O)CC(c1ccccc1)c1ccccc1O (stereo unspecified) | -8.9 | -2.4 | -2.6% | -0.3 | 0.1 | -2.0% | -33.2
O=S(=O)(c1ccc(SCc2ccccc2)nc1)N1CCCC1 | 20.7 | -0.6 | -1.7% | 29.5 | -7.7 | · | 0.5
CCOC(=O)Nc1nnc(-c2ccc(OC)cc2)s1 | -0.6 | -0.2 | -4.7%[38.3 µM] | 8.1 | -13.1 | 19.5% | -3.5
COc1ccc(-n2c(=S)[nH]c3c(oc4ccccc43)c2=O)cc1 | -2.6 | -2.4 | 1.6% | 10.9 | -3.5 | -22.2% | -8.3
O=C(Nc1cn(-c2ccccc2)nc1-c1cccs1)c1ccco1 | -1.1 | -1.5 | 11.2% | 10.0 | -5.5 | -1.9% | -2.4
CCC1=C(C(=O)OC)C(c2cc(OC)ccc2OC)C(C#N)=C(N)O1 (stereo unspecified) | -2.3 | -2.2 | 8.2%[38.3 µM] | 7.7 | 7.5 | -5.4% | -14.1
Cc1nn(-c2ccccn2)c2c1-c1nc(N)ncc1CC2 | -1.2 | -1.7 | -0.8% | -3.2 | 0.8 | -84.5% | -5.0
c1ccc2c(c1)[nH]c1c(NCC3CCCO3)ncnc12 (stereo unspecified) | 0.8 | -0.9 | 0.8% | 0.5 | -9.2 | -20.3% | -1.7
CSc1nc2c(cnn2-c2ccc(C)c(C)c2)c(=O)[nH]1 | 2.1 | -5.8 | 1.6% | 1.5 | 0.4 | 20.4% | -6.6
O=c1cc(-c2ccc(O)c(O)c2)oc2cc(O)c([C@@H]3O[C@H](CO)[C@@H](O)[C@H](O)[C@H]3O)c(O)c12 | ? | -6.1 | -0.4% | -13.8 | · | ? | -5.6

Single records, from the list above.
COc1ccc(-n2c(=S)[nH]c3c(oc4ccccc43)c2=O)cc1 is listed as Six1-Eya2 inh = -2.6; D2 agonist = -2.4; PINK1 expr mod = 1.6%; CtBP-E1A blk = 10.9; TRPV1 potentiator = -3.5; Sfp PPTase inh = -22.2%; D2 potentiator = -8.3
O=c1cc(-c2ccc(O)c(O)c2)oc2cc(O)c([C@@H]3O[C@H](CO)[C@@H](O)[C@H](O)[C@H]3O)c(O)c12 is listed as Six1-Eya2 inh = ?; D2 agonist = -6.1; PINK1 expr mod = -0.4%; CtBP-E1A blk = -13.8; TRPV1 potentiator = ·; Sfp PPTase inh = ?; D2 potentiator = -5.6

Other structures follow.
mol | Six1-Eya2 inh | D2 agonist | PINK1 expr mod | CtBP-E1A blk | TRPV1 potentiator | Sfp PPTase inh | D2 potentiator
O=C(Cc1ccccc1)NC1(Cc2ccc(O)cc2)CCCCC1 | -7.1 | -4.4 | 0.4% | -14.4 | 6.5 | 6.8% | -2.5
CSc1ccc(S(=O)(=O)N2CCC(C(=O)N3CCOCC3)CC2)cc1 | 3.1 | -3.1 | 4.1% | 22.2 | -5.5 | 3.4% | -10.6
Cc1nn(C2CCS(=O)(=O)C2)c(C)c1CN(C)C(=O)c1cccc(Cl)c1 (stereo unspecified) | 3.9 | -0.8 | -1.8% | -11.1 | -6.0 | · | -2.4
CCNC(=O)C1(C)CCCN(C(=O)c2sc(-c3ccccc3)nc2C)C1 (stereo unspecified) | 4.1 | -3.0 | -0.4% | 1.2 | · | · | -13.8
Cc1cc(C)cc(N(CC(=O)Nc2ccc(Br)cc2)S(=O)(=O)c2c(C)[nH]c(=O)[nH]c2=O)c1 | 1.3 | 4.5 | 0.9% | · | 14.8 | 7.2% | 3.1
COc1ccc(NC(=O)c2ccccc2NS(C)(=O)=O)cc1OC | 9.0 | 0.6 | 5.9% | 0.0 | -0.4 | 6.9% | -5.5
COC(=O)NCc1ccc(Cl)c(Cl)c1 | 21.0 | -2.2 | 4.0% | 12.9 | 10.9 | 7.5% | 7.1
O=C(COc1ccccc1F)NC1CCN(Cc2ccccc2)CC1 | 1.1 | -3.3 | 12.0%[38.3 µM] | 1.5 | -3.3 | 21.9% | -24.6
CCOC(=O)c1ccc(NC(=O)c2nc[nH]c2C(=O)NCCCCCNC(=O)OC(C)(C)C)cc1 | -1.9 | -1.9 | 7.7% | 2.0 | 0.8 | -4.7% | -8.9
CCC1c2ccc(C)n2CCN1C(=O)Nc1ccc(F)cc1 (stereo unspecified) | -20.7 | -2.2 | 0.1% | -5.9 | -4.4 | -12.3% | -12.4
CC1(C(=O)Nc2cccc3cccnc23)CCN1C(=O)CCC1CCCC1 (stereo unspecified) | -3.5 | -1.0 | 2.6% | 6.4 | · | · | -11.8
CCN(CC)c1ccc(NC(=O)COC(=O)Cc2ccsc2)cc1 | ? | -0.2 | -6.1% | -4.5 | -0.8 | · | 16.0
CCOc1cc2[nH]c(=S)n(CCc3ccc(OC)c(OC)c3)c(=O)c2cc1OCC | 3.8 | -2.9 | · | -4.5 | -5.0 | -3.5% | -10.9
O=C(Cn1c(=O)cnc2ccccc21)N1CCN(S(=O)(=O)c2ccccc2Br)CC1 | -5.0 | 4.6 | 4.1% | 3.1 | -8.8 | · | -14.7
COc1ccc(NC(=O)N(Cc2ccc(C)cc2)Cc2ccccn2)c(OC)c1 | 9.9 | 2.2 | 1.8% | 0.0 | · | · | -1.8
Nc1ccc2nc(-c3ccccn3)[nH]c2c1 | -75.2* | 2.2 | 17.8% | -70.3* | 0.1 | 5.3% | -1.7
CCOC(=O)CSc1nnc(Cn2nnc(-c3ccccc3)n2)n1C | -0.6 | -1.5 | 57.7%[38.3 µM] | 3.2 | 4.1 | 14.7% | -3.5
COc1ccc(C(NC(=O)C2CCCCC2)c2c(O)ccc3ccccc23)cc1 (stereo unspecified) | -8.9 | -4.0 | 1.2% | -3.5 | 19.3 | -1.9% | -11.5
Cc1cccc(CNS(=O)(=O)c2ccc(-c3ccc(=O)[nH]n3)s2)c1 | -0.5 | 8.7 | 4.0% | -0.7 | -5.4 | 13.1% | 4.1
COc1cc2cc(CN(CCO)S(=O)(=O)c3ccccc3Cl)c(=O)[nH]c2cc1OC | -3.9 | -0.9 | -0.4%[38.3 µM] | 1.7 | -11.9 | 8.8% | -0.4
Nc1c(-c2ccccc2)nnn1Cc1ccccc1 | 34.3 | 5.3 | 1.8% | 5.4 | · | · | -4.1
CC(=O)c1cc(-c2ccccc2)n(CC(=O)Nc2ccc(C)c(C)c2)c1C | -11.0 | -2.2 | 4.7%&-1.0% | -3.0 | ? | ? | -28.6
CCCCC(=O)Nc1nnc(S(=O)(=O)N2CCCc3ccccc32)s1 | -1.6 | -5.7 | 2.2% | 0.8 | -0.7 | 5.9% | 4.1
CCOC(=O)C1CCCCN1Cc1cc(OC)ccc1OC (stereo unspecified) | -0.3 | 0.7 | · | 3.2 | 7.8 | -13.2% | -22.2
O=C(CCC1CCCN(C(=O)c2ccc3cc[nH]c3c2)C1)NCc1ccc(F)c(F)c1 (stereo unspecified) | -0.8 | -0.1 | -0.2% | -10.8 | -2.7 | 13.6% | -26.1
Cc1onc(-c2ccccc2)c1C(=O)NC(=S)NNC(=O)c1cccnc1 | 1.6 | -8.3 | -1.3% | 1.3 | 2.0 | 9.5% | -8.8
CCc1cccc2c(C(=O)COC(=O)c3cccc(S(=O)(=O)N(C)C4CCCCC4)c3)c[nH]c12 | -2.6 | 1.1 | 0.4% | 3.5 | 15.9 | 14.3% | -0.4
CC(C)(C)c1ccc(COn2c(=O)c(-c3ccco3)[n+]([O-])c3ccccc32)cc1 | 2.8 | -2.2 | · | 4.5 | 18.5 | 56.2µM* | 12.4
Oc1ccc(CN2CCCCC2)nc1-c1ccccc1 | -1.1 | -3.1 | -0.2% | -0.3 | -26.4 | 15.3% | -35.3
CC(C)OCCCn1c(=O)c2ccccc2n2c(CCC(=O)NCc3ccccn3)nnc12 | -5.7 | 3.1 | 1.6% | · | 8.1 | 16.5% | -3.5

Screens from PubChem.
